Bioassay records (PubChem BioAssay)
NPR1 antag = antagonists of human natriuretic peptide receptor Npr1. P16066. HEK293 hNpr1 GloSensor cGMP, ANP-stimulated luminescence. Potency, µM (highest dose often 46.3 µM), without a hit: at the highest dose activity change, negative = inhibition, actives largely listed as inhibitors. 1.6% of 76,000 active; active = well fitted inhibition curve with a large enough effect; inconclusive = small, poorly fitted or top-dose-only effect; inactive = no such curve, though single readings can be large or run the other way;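 also: nearly all actives have a fitted effect of over 60% in size; nearly all hits also lower the signal before the agonist is added; a reference antagonist and vehicle were the controls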
Target sequence (P16066 whole entry, looked up): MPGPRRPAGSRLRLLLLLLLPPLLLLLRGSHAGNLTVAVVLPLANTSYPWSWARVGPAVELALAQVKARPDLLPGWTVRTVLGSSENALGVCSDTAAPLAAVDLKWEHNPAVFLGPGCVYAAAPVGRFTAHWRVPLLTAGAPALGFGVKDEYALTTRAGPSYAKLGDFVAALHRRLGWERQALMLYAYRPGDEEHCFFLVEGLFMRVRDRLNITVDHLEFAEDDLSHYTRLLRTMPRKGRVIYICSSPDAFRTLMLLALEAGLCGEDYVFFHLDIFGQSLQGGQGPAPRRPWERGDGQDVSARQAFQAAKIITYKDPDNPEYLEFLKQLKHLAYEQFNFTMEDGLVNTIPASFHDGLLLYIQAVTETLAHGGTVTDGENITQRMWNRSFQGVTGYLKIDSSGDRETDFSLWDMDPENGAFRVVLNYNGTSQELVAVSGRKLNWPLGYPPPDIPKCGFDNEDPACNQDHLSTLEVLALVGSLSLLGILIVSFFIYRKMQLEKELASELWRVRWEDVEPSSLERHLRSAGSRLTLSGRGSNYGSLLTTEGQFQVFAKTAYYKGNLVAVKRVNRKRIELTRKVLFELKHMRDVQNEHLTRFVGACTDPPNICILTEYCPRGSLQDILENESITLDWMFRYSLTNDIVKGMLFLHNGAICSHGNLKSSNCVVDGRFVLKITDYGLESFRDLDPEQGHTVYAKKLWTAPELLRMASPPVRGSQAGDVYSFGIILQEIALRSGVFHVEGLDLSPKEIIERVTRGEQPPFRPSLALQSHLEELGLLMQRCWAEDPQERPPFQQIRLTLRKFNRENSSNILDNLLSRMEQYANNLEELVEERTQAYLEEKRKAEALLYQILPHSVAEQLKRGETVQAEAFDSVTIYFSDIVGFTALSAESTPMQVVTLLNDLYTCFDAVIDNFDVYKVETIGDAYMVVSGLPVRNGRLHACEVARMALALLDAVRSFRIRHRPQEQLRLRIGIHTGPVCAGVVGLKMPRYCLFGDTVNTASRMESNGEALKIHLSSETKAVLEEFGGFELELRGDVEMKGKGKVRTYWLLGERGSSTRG
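HEK293 cells stably expressing human Npr1 and cGMP GloSensor pGS-40F, loaded 2 h with 2% GloSensor reagent, given compound 30 min at room temperature. Luminescence read before and 20 min after 0.1 nM hNppA.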
Active calls of the source: *; ? = inconclusive; [ ] = another dose, or the depositor's remark. % is scaled to controls: 0 for no effect and ±100 for the full control effect; potency is read from the fitted curve at half-maximal effect. These rows are one share of the data (hit frequency here may not be typical).

SMILES	NPR1 antag
Cc1ccc(C(=O)N2CCCN(S(C)(=O)=O)C(c3ccccc3)CC(=O)NCC2)s1 (stereo unspecified)	0.9%
COCCn1c(C)cnc1CC1CCCN(C(=O)C2(c3ccc(OC)cc3)CC2)C1 (stereo unspecified)	-4.6%
O=C(NCCc1ccccc1)N(C1CCOCC1)C1CCN(Cc2ccsc2)CC1	-13.4%
O=C(CC[C@H]1NC(=O)c2ccccc2NC1=O)NCCc1ccc(O)cc1	-13.7%
O=C(c1csc2c1CCCC2)N1CCCC(OCc2ccccn2)C1 (stereo unspecified)	3.6%
CCOC(=O)C1=C(C)N=C2SC=C(CC(=O)N3CCC(C)CC3)N2C1c1ccccc1F (stereo unspecified)	-16.1%
COCCCNC(=O)[C@@H]1Cc2cn(Cc3nccn3C)c3cccc(c23)[C@H](CC(C)C)N1	-2.6%[70.6 µM]
COc1cccc(NC(=O)c2cnc3c(c2)N(C(=O)Cc2ccc(C(C)C)cc2)CCC3)c1	11.2µM*
Cc1ccsc1CN1CCn2c(nnc2[C@@H]2C[C@@H](O)CN2C)C1	4.4%
CC(C)(C)c1ccc(-c2cc(C[C@H]3CNCC[C@H]3CC(=O)Nc3nccs3)no2)cc1	1.9%
CC1=C[C@@H](CNC(=O)CCC(=O)O)[C@H](C(C)C)C[C@H]1Cc1nc2c(C)cccc2[nH]1	-1.8%[70.6 µM]
COc1cc(NC(=O)Cn2c(C)cc3nc4n(c(=O)c32)CCC4)cc(OC)c1OC	-0.1%
C=CCNC(=O)C[C@@H]1CCN(C(=O)CCCCC)C[C@@H]1CC	3.0%[70.6 µM]
COc1ccc(-c2nc3c(C)cccc3cc2CN2CCC(O)CC2)cc1OC	0.8%
CC(C)c1noc(-c2cn(C3CCN(C(=O)COc4ccc(F)cc4)CC3)nn2)n1	-27.2%
CSc1ccc(O[C@@H]2C=C(C(=O)N[C@@H](Cc3ccc(O)cc3)C(N)=O)C[C@@H](O)[C@H]2O)cc1C	2.2%
Cc1c(Cl)cccc1NC(=O)C[C@H]1NC(=O)c2ccccc2NC1=O	1.6%
O=C(NC1CC1)C1COC2(CCN(C(=O)c3cccc([N+](=O)[O-])c3)CC2)N1C(=O)c1ccccc1 (stereo unspecified)	1.3%
CN1[C@@H](CCC(=O)NCc2ccccc2)CNC(=O)[C@@H]2[C@H]1CCN2Cc1ccc(S(C)(=O)=O)cc1	4.2%
Cc1ccc(C)c(OCC(=O)c2ccc3c(c2)N(CCCC(=O)N2CCCC2)C(=O)CO3)c1C	-1.4%
O=C(C1CCC1)N1CCCC(Cc2nc(C3CCOCC3)no2)C1 (stereo unspecified)	4.6%
COc1cccc(NC(=O)C2CCN(C(=O)N3CC4CC(C3)[C@H]3CCCC(=O)N3C4)CC2)c1 (stereo partly specified)	3.6%
COc1ccc(-c2noc([C@@H]3CCCN3C(=O)COc3cccc(C)c3)n2)cc1	-17.0%
CCN1C(=O)C2CC3(CCN(Cc4cccc(OC(F)(F)F)c4)CC3)CN2C1=O (stereo unspecified)	-21.4%
C[C@@H](c1ccccc1)N1C(=O)[C@@H]2CN(C(=O)c3ccccc3)CCN2C1=O	-10.5%[70.6 µM]
O=C(NC[C@H]1COCc2nc3cc(F)ccc3n21)c1ccc(Cl)cc1	-10.5%[70.6 µM]
Cc1cccc(OCC(=O)N2CCC(OC3CCN(C)CC3)CC2)c1	3.1%
CN(C)S(=O)(=O)N1CCOc2ccc(CCC(=O)NCC3CC3)cc2C1	7.4%
COc1ccc(Cl)cc1NC(=O)Cn1c(N2CCN(c3ccccc3)CC2)nc(C)cc1=O	-4.1%
CCN1CCN(C(=O)Cn2nc(C)c3sc(-c4ccccc4)nc3c2=O)CC1	0.1%
Cc1cc(C)c(NC(=O)Cn2cccc2-c2nc(-c3ccc4c(c3)OCO4)no2)c(C)c1	0.6%
COCC1(CNCc2cn(C)c3ccccc23)C[C@@H](O)[C@@H](O)C1 (stereo partly specified)	-0.3%[70.6 µM]
O=C(Nc1nncs1)C1CC(=O)N(c2n[nH]c3cccc(F)c23)C1 (stereo unspecified)	-7.3%
Cc1ccc(OCC(=O)N2CCC3(CC2)CC(OCC2CC2)CCO3)cc1 (stereo unspecified)	-5.1%
COCCNC(=O)C[C@@H]1C[C@H]2O[C@H](CNC(=O)NCc3ccccc3)[C@@H](O)[C@H]2O1	3.6%[70.6 µM]
Cc1nn2c(c1-c1cccnc1N1CCOCC1)N(CCC(C)C)CCC2	-25.0%[70.6 µM]
CCN(CCN1CCCC1)C(=O)C1CCC(=O)N(Cc2ccccc2F)C1 (stereo unspecified)	7.2%
COc1cccc([C@H]2CN(C(=O)c3c(C)nn4c(C)cc(C)nc34)C[C@@H]2N)c1	2.7%
O=[N+]([O-])c1cccc(-c2noc([C@@H]3C[C@@H](O)CN3Cc3cc4ccccc4o3)n2)c1	5.6%[70.6 µM]
C#CCNC(=O)C[C@@H]1CCN(C(=O)CCCCC)C[C@@H]1CC	-1.6%[70.6 µM]
CC(=O)c1ccc(NC(=O)N[C@H]2C[C@@](O)(C(=O)N[C@H](Cc3ccccc3)C(N)=O)C[C@@H](O)[C@@H]2O)cc1	2.0%
O=S(=O)(Cc1cccc(F)c1)N1CCC(C2CCNC2)CC1 (stereo unspecified)	0.8%
O=C(N[C@H](c1ccccn1)C1CC(O)C1)c1cnc2ccccn2c1=O (stereo partly specified)	7.9%
COc1cccc(C(=O)N2CCC3(CC2)CC(N(C)Cc2ccccc2)CCO3)c1 (stereo unspecified)	0.0%
O=C(Cn1cccc1-c1nc(-c2ccccc2)no1)NCCCc1ccccc1	-17.1%
CN(C)C[C@@H]1CN(c2ccccn2)C[C@H]1NC(=O)NC1CCCCC1	-0.9%
COc1ccc(-c2ccnc3nc(CCC4CCCC4)nn23)cc1OC	1.8%
Cc1ccc(OCc2nc(C3CCN(C(=O)NCc4ccc(F)cc4)CC3)no2)cc1	?
Cc1[nH]cnc1C(=O)N1CCC2(CC1)CC(C(=O)O)N(C(=O)C1CC1)C2 (stereo unspecified)	6.8%
O=C1CC(c2ccccc2)N(Cc2ccncc2)CCCN(S(=O)(=O)c2cccnc2)CCN1 (stereo unspecified)	-2.6%
O=C1CC(c2ccccc2)N(C(=O)CNC(=O)C2CC=CC2)CCCCCN1 (stereo unspecified)	-0.4%
COc1ccc(CN2CCC3(CC2)COc2ccccc2NC3=O)cc1	17.7%
Cn1nc(C2CCCN(C(=O)Cc3ccsc3)C2)n(C2CCCC2)c1=O (stereo unspecified)	4.9%
CCn1ccnc1CN1CCCC(CNC(=O)c2cccc(OC)c2OC)C1 (stereo unspecified)	4.3%
Cn1ccnc1CNC(=O)C[C@@H]1C[C@H]2O[C@H](CNC(=O)NC3CCC3)[C@@H](O)[C@H]2O1	3.8%[70.6 µM]
Cc1nn(CCO)cc1CN1CCN(C(=O)c2ccoc2)CC(O)C1 (stereo unspecified)	4.4%
COc1ccc(C(=O)N2CCC(c3n[nH]c(=O)n3Cc3ccc(F)cc3)CC2)cc1OC	0.0%
COc1cccc(C(=O)N2CCC(Oc3ccccc3)C2)c1 (stereo unspecified)	2.9%
Cc1cc(N2CCC3(CCC(=O)N(CC4CCCO4)C3)CC2)nc(N)n1 (stereo unspecified)	2.6%
Cc1ccccc1N1CCN(C(=O)c2cc3c(s2)CCN(C(=O)c2ccccc2)C3)CC1	-1.7%

Quoted at random: 7 compounds from above
SMILES	NPR1 antag
Cc1cc(N2CCC3(CCC(=O)N(CC4CCCO4)C3)CC2)nc(N)n1 (stereo unspecified)	2.6%
Cc1nn(CCO)cc1CN1CCN(C(=O)c2ccoc2)CC(O)C1 (stereo unspecified)	4.4%
COc1ccc(CN2CCC3(CC2)COc2ccccc2NC3=O)cc1	17.7%
O=C1CC(c2ccccc2)N(Cc2ccncc2)CCCN(S(=O)(=O)c2cccnc2)CCN1 (stereo unspecified)	-2.6%
O=C(N[C@H](c1ccccn1)C1CC(O)C1)c1cnc2ccccn2c1=O (stereo partly specified)	7.9%
O=S(=O)(Cc1cccc(F)c1)N1CCC(C2CCNC2)CC1 (stereo unspecified)	0.8%
COc1ccc(C(=O)N2CCC(c3n[nH]c(=O)n3Cc3ccc(F)cc3)CC2)cc1OC	0.0%

The results go on.
SMILES	NPR1 antag
Cc1cc2cc(-c3c(C)noc3C)nc(Nc3ccccc3)c2o1	-7.8%[70.6 µM]
CC(=O)Nc1cccc(NC(=O)CC[C@H]2NC(=O)c3ccccc3NC2=O)c1	-0.5%
O=C(c1csc(Cc2ccccc2)n1)N1Cc2ccccc2C(O)C1 (stereo unspecified)	-0.4%
O=C(Cc1cccc(Cl)c1)N1CCc2nc(-c3ccccc3)nc(-c3ccc(Cl)cc3)c2C1	-2.7%
Cc1cn2nc(-c3nc(C4CCCN(C(=O)c5sccc5C)C4)no3)cc2c(=O)[nH]1 (stereo unspecified)	-13.7%
CC(C)CNC(=O)c1coc(COc2ccc3c(c2)C(c2ccccc2)N(C(=O)C(C)C)CC3)n1 (stereo unspecified)	-15.8%
CCC(=O)NCc1cc2c(nc1OC)CN(C1CCCC1)C2=O	9.2%
CS(=O)(=O)N1CCOc2ccc(CCC(=O)NCCCN3CCOCC3)cc2C1	-0.6%
Cc1ccc(CN2CC[C@H](c3nnc(-c4cccnc4)o3)C2)cc1	-0.9%[70.6 µM]
Cc1ccc(CC(=O)N2CCN(C(=O)c3nnn4c3COC(c3ccccc3)C4)CC2)cc1 (stereo unspecified)	-14.2%
C[C@@H](NS(=O)(=O)c1ccccc1)c1onc(-c2ccccc2)c1C(=O)O	0.6%[70.6 µM]
COc1ccc(C(=O)N2CCCOCCNC(=O)CC2)c(OC)n1	6.8%
COc1ccc(Cl)cc1C(=O)N1CC(F)(F)C[C@H]1c1nc(C)no1	-2.6%
CCn1nccc1C(=O)N1CCCC(c2noc(COC)n2)C1 (stereo unspecified)	0.0%
O=C1NC2(CCOCC2)C(=O)N1CC(=O)N1CCCc2ccccc21	2.4%
O=C1NCc2cc(-c3cc4c(ccn4Cc4ccncc4)c(N4CCOCC4)n3)ccc21	-13.7%[70.6 µM]
CN1C[C@@H](NC(=O)Nc2ccc(F)cc2F)C[C@H]1c1nc(-c2ccccc2)no1	?
CC(C)c1nc2c(c(-c3ccc(O)cc3)n1)CN([S+](=O)([O-])c1cccs1)CC2	-2.8%
CSCc1noc(CN2CCCC(CO)(CC=C(C)C)C2)n1 (stereo unspecified)	3.1%
CCNC(=O)c1c(C)oc2c1CN(C(=O)CCc1ccccc1)CC2	0.2%
CN1C(=O)C2(CCN(S(=O)(=O)c3ccc(F)cc3)C2)c2ccccc21 (stereo unspecified)	-0.4%
CN1CCN(C(=O)N2CCC3(CCCN(C4CCCC4)C3=O)C2)CC1 (stereo unspecified)	2.7%
O=C(Cc1cccc(Cl)c1)N1CCC2(CC1)CCN(Cc1cccs1)c1ccccc1O2	12.8%
Cn1cc(CNC(=O)c2coc(CN3CCN(C/C=C/c4ccccc4)CC3)n2)cn1	-13.5%
CNC(=O)N1CCCCCCn2c(nnc2-c2ccc(F)cc2)CC1	-14.5%
CC(C)=CCn1c(-c2cc(C)oc2C)cn2cc(C(=O)N3CCCC3C)nc2c1=O (stereo unspecified)	5.2%
COc1ccc(OC)c(CNC(=O)CCC[C@H]2NC[C@@H]3C[C@H]2CN(Cc2ccccc2)C3)c1	-15.6%
Cc1ccc(OCc2nc(C3CN(C(=O)c4cc(C)nn4C)C3)no2)cc1	?
O=C(C1CCN(C(=O)N2CC3CC(C2)[C@H]2CCCC(=O)N2C3)CC1)N1CCc2ccccc2C1 (stereo partly specified)	-0.4%
Cc1noc(C)c1CN1CCNc2cc(Nc3ccccc3)ncc2C1	-0.6%[70.6 µM]
COc1ccc(OCC2(C)COc3ccc(C(=O)NCc4ccc(F)cc4)cc3N2)cc1 (stereo unspecified)	-29.6%[70.6 µM]
Cn1cc(CN[C@H]2C[C@H]3C(=O)NC[C@@H](CCC(=O)NCc4ccc(F)cc4)N3C2)c2ccccc21	9.4%
CN(C)S(=O)(=O)N1CCC(Oc2ccc(C(=O)NC3(C)CC3)cc2)CC1	6.1%
CCOc1ccc2c(n1)CCN(C(=O)Cc1cccc(F)c1)C2	1.7%
Cc1cccc(C(=O)N2CCCCCCNC(=O)[C@@H]3C[C@@H](c4nc(-c5cccnc5)no4)C[C@@H]32)c1	-2.7%
COC(=O)C1=C(C)N=C2SC=C(CC(=O)NCc3cccc(F)c3)N2C1c1cccc(OC)c1 (stereo unspecified)	-18.4%
Cc1ccccc1NC(=O)CN1C(=O)C(c2ccccc2)=NC12CCCCC2	-0.7%
CC(C)CCNC(=O)c1cccc2c1CCN2S(=O)(=O)c1ccccc1F	?
C=CCCC(CN1CCCOCC1)Oc1ccc2cccc(OC)c2n1 (stereo unspecified)	0.3%
Cc1ccc(CNC(=O)C2(c3ccc(NS(C)(=O)=O)cc3)CCCCC2)o1	-3.1%
CS(=O)(=O)N(C1CCOCC1)C1CCN(C(=O)C2CC2)CC1	-2.4%
C=CCNC(=O)C1CCCN(Cc2cccnc2)CCC(=O)NCC1 (stereo unspecified)	-1.0%

Exported with each value named: entries from further up.
COc1ccc(C(=O)N2CCCOCCNC(=O)CC2)c(OC)n1
  NPR1 antag: 6.8%

CCn1ccnc1CN1CCCC(CNC(=O)c2cccc(OC)c2OC)C1 (stereo unspecified)
  NPR1 antag: 4.3%

C[C@@H](NS(=O)(=O)c1ccccc1)c1onc(-c2ccccc2)c1C(=O)O
  NPR1 antag: 0.6%[70.6 µM]

Cc1c(Cl)cccc1NC(=O)C[C@H]1NC(=O)c2ccccc2NC1=O
  NPR1 antag: 1.6%
